# RecA intein inh = Mtb RecA intein splicing inhibition. P9WHJ3. cell-free RecA intein splicing, fluorescence. inhibition, %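 (about 9 µM by stock and volumes)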. hit rate 0.75% among 290,000; in the data active = inhibition above about 30%; inconclusive = no clear call, values can overlap the other calls;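 also: 0% = vehicle wells and 100% = reference inhibitor control wells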
# Target sequence (P9WHJ3 whole entry, looked up): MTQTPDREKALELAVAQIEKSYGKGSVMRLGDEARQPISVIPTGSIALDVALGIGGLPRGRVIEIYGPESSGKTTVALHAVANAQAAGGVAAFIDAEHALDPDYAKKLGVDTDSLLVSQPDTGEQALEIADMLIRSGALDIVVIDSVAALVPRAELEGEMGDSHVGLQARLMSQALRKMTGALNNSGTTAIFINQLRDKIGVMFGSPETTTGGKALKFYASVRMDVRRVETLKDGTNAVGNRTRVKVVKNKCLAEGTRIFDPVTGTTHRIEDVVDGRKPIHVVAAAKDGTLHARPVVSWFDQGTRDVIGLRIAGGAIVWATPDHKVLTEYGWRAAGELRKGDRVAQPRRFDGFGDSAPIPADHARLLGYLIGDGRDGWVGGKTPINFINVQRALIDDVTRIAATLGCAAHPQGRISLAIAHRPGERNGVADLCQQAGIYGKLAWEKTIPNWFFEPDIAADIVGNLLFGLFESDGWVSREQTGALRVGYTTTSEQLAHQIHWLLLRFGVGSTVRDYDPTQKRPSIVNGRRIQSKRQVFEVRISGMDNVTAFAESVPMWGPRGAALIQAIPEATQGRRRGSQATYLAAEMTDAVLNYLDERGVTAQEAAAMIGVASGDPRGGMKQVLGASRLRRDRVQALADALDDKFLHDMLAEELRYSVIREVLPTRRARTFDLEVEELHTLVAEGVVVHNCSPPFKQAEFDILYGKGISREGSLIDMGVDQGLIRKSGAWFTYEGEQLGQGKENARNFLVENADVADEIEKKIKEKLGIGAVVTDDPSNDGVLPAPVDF
# YopH PTP inh = YopH (Yersinia) phosphatase inhibition | fluorescence Ex485/Em525 | inhibition, %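 (about 10 µM by stock and volumes)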 | hit rate 0.16% among 140,000;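 active = inhibition of 50% or more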;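 also: controls were vehicle for no effect and minimum signal wells for full effect; inactives centre near -20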
# Mtb growth = M. tuberculosis H37Rv growth inhibitors, H37Rv strain (AID 1626); one-dose inhibition, % at 10 µM; IC50 in µM for titrated hits; M. tuberculosis H37Rv growth inhibition; higher % means a stronger effect; hit rate 0.95% among 220,000;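 active = confirmed in a dose series; inconclusive = inhibition above 80% but not taken into the dose series; inactive = below 80% or under 30% at every dose of the series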;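 also: bacteria incubated seven days before Alamar blue readout; 0% = bacteria only wells and 100% = bacteria with antibiotic wells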
# Arbovirus inh = blocks arbovirus infection. hit rate 0.37% among 200,000. arbovirus infection cell-based antiviral screen. inhibition, % at 10 µM;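 active = inhibition from about 30%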;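 also: bluetongue infection of BSR cells; cell survival read as ATP light after 72 h; 0% = infected wells without compound and 100% = uninfected wells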
# Mtb bLac sens = beta-lactam sensitization of Mtb H37Rv. M. tuberculosis H37Rv growth with meropenem, percent inhibition; hits of this screen are not shown here. inhibition, % at 25 µM. hit rate 0.27% among 330,000. AID 434955;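 active = about 74% or more and at least 40 points above the plate without the antibiotic, then above 30% in a dose series; inconclusive = first-round hits that could not be retested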;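 also: growth measured after seven days incubation then overnight dye step; 0% = bacteria only wells and 100% = bacteria with antibiotic; twin plates without the antibiotic show which effects depend on it; some results filed as inactive read as strong as hits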
# The depositor's hits bear a star; ? = inconclusive; · = not tested or not shown.
SMILES,RecA intein inh,YopH PTP inh,Mtb growth,Arbovirus inh,Mtb bLac sens
Cc1ccc(C(=O)Nc2nc(=O)n(C(=O)CC(C)C)s2)cc1,-2.9,-44,4%,10,15
O=C(CC(=O)N/N=C/c1ccc(O)cc1)N/N=C/c1ccc(O)cc1,3.1,·,-3%,·,-2
CN(C)C(/C=C/Nc1ccc(F)cc1)=C(C#N)C#N,-3.0,-27,-4%,4,-1
O=c1cc(N2CCN(Cc3ccccc3)CC2)[nH]c(=O)n1Cc1ccc(F)cc1,-0.6,-8,4%,-1,-7
FC(F)(F)c1nc2ccccc2nc1N/N=C/c1c(Cl)cccc1Cl,1.2,-34,10%,-17,-10
COc1ccc(S(=O)(=O)N/N=C(/C)c2ccncc2)c(OC)c1,-6.2,·,·,·,-9
CN(CC(=O)O)c1ccc(S(=O)(=O)N2CCOCC2)cc1[N+](=O)[O-],0.8,·,1%,6,-6
COCCCNC(=O)Cn1c(=O)n(CCCCCC(=O)NCc2ccc3c(c2)OCO3)c(=O)c2sccc21,1.3,·,6%,-2,-4
CCCCOCCCNC(=O)CN1C(=O)c2ccccc2C1=O,-0.5,-9,15%,6,-3
CC(C)OC(=O)Cn1cc(C#N)c2ccccc21,-2.1,·,3%,0,9
CCOc1ccc(N(CC(=O)N2CCN(c3ccccc3OC)CC2)S(=O)(=O)c2ccc(F)cc2)cc1,5.5,·,·,·,8
CCc1nnc(NC(=O)CSc2nnc(-c3ccc(S(=O)(=O)N(CC)CC)cc3)n2CC)s1,1.9,0,-3%,9,13
CCOC(=O)C(NC(=O)CC)(Nc1ccccc1)C(F)(F)F (centres undefined),0.2,-23,-2%,5,2
Cc1ccc(S(=O)(=O)Cc2ccc(C(=O)N3CCC(C(N)=O)CC3)o2)cc1,0.2,·,·,·,-7
Cc1ccc(Nc2nc(-c3ccc(S(=O)(=O)N4CCOCC4)cc3)cs2)cc1,5.6,-36,10%,·,?
CCOC(=O)C1C(C(=O)NN)C1C(=O)Nc1ccccc1 (centres undefined),15,·,-1%,3,-9
COc1ccc(N2C(=O)CSC2c2ccncc2)cc1 (centres undefined),-1.5,-34,-2%,7,2
Cc1ccc(N2C(=O)C3C4C=CC(CC4)C3C2=O)cc1Cl (centres undefined),0.1,·,·,·,-5
OC(CN1CCC(Cc2ccccc2)CC1)C(F)(F)F (centres undefined),-0.6,·,·,·,-6
CC1(C)CC2CC(C)(CN2S(=O)(=O)c2ccc(C(=O)Nc3ccc(Cl)c(S(=O)(=O)N4CCOCC4)c3)cc2)C1 (centres undefined),0.9,-28,-5%,-4,11
COc1ccc(CCNC(=O)c2ccc3c(c2)SC2=NS(=O)(=O)CCN23)cc1,-4.0,·,-3%,·,-7
CC(=O)Nc1ccc(NC(=O)C2CCCN(c3nnc(-n4cccc4)s3)C2)cc1 (centres undefined),4.6,-34,0%,-1,1
COc1ccc(CCNC(=O)c2nc3ncccn3n2)cc1OC,-0.4,2,-8%,0,1
CN(c1ccccc1)S(=O)(=O)c1ccc(NC(=O)c2ccccc2)cc1,7.0,-37,9%,1,2
CCCCCC(=O)N1CC2(C)CN(C(=O)CCCCC)CC(C)(C1)C2=O,-0.6,-5,2%,10,-9
CC1(C)CC(NC(=O)Cc2ccccc2)CC(C)(C)N1,-0.8,·,·,·,5
CCCn1c(N)c(Sc2ccccc2)c(=O)n(CCC)c1=O,2.8,-6,-5%,2,1
O=c1cc(O)c2ccccc2n1Cc1ccccc1Cl,-2.2,·,-8%,17,6
CCC(COC(=O)NC)NC(=O)Oc1ccccc1 (centres undefined),-0.2,-5,0%,11,-3
CC(OC(=O)c1cc2ccccc2cc1O)C(=O)Nc1ccc(S(N)(=O)=O)cc1 (centres undefined),0.8,·,-15%,·,-12
CCN(CC(=O)Nc1ccc(NC(C)=O)cc1)C(=O)CN1C(=O)NC2(CCCC2)C1=O,-2.5,·,·,·,2
COc1ccc(C(=O)C2CN(C)CC2C(=O)c2ccc(OC)cc2)cc1 (centres undefined),0.1,-31,8%,-5,-6
CC1CN(C(=O)C2CCCCC2)C(C)CN1C(=O)C1CCCCC1 (centres undefined),2.5,-16,-4%,-1,-8
CC(C)[C@H](NC(=O)N1CCn2c1nc1ccccc12)C(=O)NCc1ccco1,-0.4,·,·,·,2
Cc1ccc(/C=C2\SC(=S)N(CCC(=O)Nc3ccc(O)cc3)C2=O)cc1,3.4,·,·,·,4
O=C(NCCc1ccco1)C(=O)NCC1CCCN1S(=O)(=O)c1ccccc1 (centres undefined),0.5,·,·,·,-2
Cc1cc(OC(=O)c2ccc(S(=O)(=O)N3CCOCC3)cc2)c([N+](=O)[O-])c(=O)[nH]1,·,·,5%,2,·
COc1ccccc1OC(=O)c1cc(Cl)nc2ccccc12,2.5,-45,45%,3,62
Cc1ccc(O)c(NC(=S)NC(=O)c2ccccc2Cl)c1,-3.7,·,?,-2,96
COc1cc2ccccc2cc1C(=O)Nc1ccc(Cc2ccncc2)cc1,14,2,9%,-35,99
COc1ccc(-c2cc(C(F)(F)F)nc(N3CCCCC3)n2)cc1OC,2.2,-21,-6%,-10,-3
O=C(CSc1n[nH]c(-c2ccncc2)n1)NC1CCS(=O)(=O)C1 (centres undefined),-7.3,-25,-2%,3,-5
COc1cccc(CN2CCN(S(=O)(=O)c3ccc(Br)cc3)CC2)c1,2.5,14,1%,3,1
CCOC(=O)CSc1nnc(-c2ccc(NS(=O)(=O)c3ccc(C)cc3)cc2)o1,-2.6,-17,2.3µM*,0,98
COc1ccc(/C=N/Nc2cc(C)nc(N)n2)cc1,-6.5,-26,4%,-5,9
CCOC(=O)c1[nH]c2cc(OC)c(OC)cc2c1NC(=O)CN(C)C1CCCCC1,0.7,-16,2%,-11,-6
COc1ccccc1-n1c(=S)[nH]c2c(sc(=S)n2-c2ccccc2C)c1=O,-23,·,5%,0,4
CCCc1nnc(NC(=O)CCC(=O)N2CCCCC2)s1,-3.2,·,·,·,1
Cc1oc2c(C)c3oc(=O)c(CCC(=O)NCCCN4CCOCC4)c(C)c3cc2c1C,-2.5,·,·,·,-4
CC(C)CC(c1nnnn1CC1CCCO1)N1CCN(c2nc3ccccc3s2)CC1 (centres undefined),-15,-27,-3%,9,·

# The results go on.
SMILES,RecA intein inh,YopH PTP inh,Mtb growth,Arbovirus inh,Mtb bLac sens
CCCCCc1ccc(-c2cn(CN3C(=O)c4ccccc4C3=O)nn2)cc1,0.7,·,·,·,26
CCC(C)[C@H](NC(=O)N1CC(=O)Nc2ccccc21)C(=O)Nc1nccs1 (some centres undefined),0.7,·,·,·,-4
Cc1ccc(C(=O)Nc2ccc3c(c2)CCC3)cc1S(=O)(=O)N1CCOCC1,0.8,·,7%,-3,7
COc1cccc([C@H](O)Cn2cc(-c3ccc(CON=C(C)C)cc3)nn2)c1,-2.4,-18,·,-1,4
CCO/C=C1/C(=O)N(c2ccc(OC)cc2)C(=O)c2ccccc21,2.6,·,1%,6,8
C/C(Cn1cnc([N+](=O)[O-])n1)=N\NC(=O)c1cccc(F)c1,-0.6,-20,-11%,5,-5
CCn1c(=O)n(CC)c2cc(N)ccc21,-4.0,·,-3%,10,0
CCOc1cc(N2CCOCC2)c(OCC)cc1NC(=O)c1ccc(C)s1,18,·,3%,-16,5
O=C(NCCc1ccccn1)c1ccc(COc2ccccc2)o1,1.9,-67,-1%,-2,6
Cc1nn2c(=O)cc(CSCC(=O)Nc3ccccc3Cl)nc2s1,-3.0,·,·,·,4
Cc1nc(SCc2ccc(Cl)c(Cl)c2)ncc1C(=O)O,3.0,·,3%,3,-6
Cc1cc(C(=O)N2CCCC(N3CCN(c4cccc(C(F)(F)F)c4)CC3)C2)no1 (centres undefined),3.9,·,·,·,-24
Cc1nnc(SCC(=O)Nc2cccnc2Cl)s1,0.5,·,·,·,-10
COC(=O)C1C(c2ccccc2)C(C(=O)O)C1c1ccccc1 (centres undefined),-0.3,·,1%,3,3
COc1ccc(CN2CCCC(C(=O)c3ccc4c(c3)OCO4)C2)c(F)c1 (centres undefined),2.8,·,·,·,0
COc1ccc(C=O)c(OC)c1,-2.3,·,-4%,2,-3
CN=C(c1ccc([N+](=O)[O-])cc1)N1CCCCC1,-4.4,·,-8%,-1,-6
COC(=O)c1ccc(C2Nc3cccc4cccc(c34)N2)cc1,0.7,·,21%,0,8
C=CC(=O)Nc1ccc(Br)cc1,11,-15,-8%,-2,-3
COc1c2n(C)ccc3c-2n(c(=O)c1=O)c1ccccc31,7.7,·,·,·,1

# Brought forward from above: 7 compounds; new compounds follow.
SMILES,RecA intein inh,YopH PTP inh,Mtb growth,Arbovirus inh,Mtb bLac sens
COC(=O)C1C(c2ccccc2)C(C(=O)O)C1c1ccccc1 (centres undefined),-0.3,·,1%,3,3
COc1ccc(CN2CCCC(C(=O)c3ccc4c(c3)OCO4)C2)c(F)c1 (centres undefined),2.8,·,·,·,0
COc1ccc(C=O)c(OC)c1,-2.3,·,-4%,2,-3
CN=C(c1ccc([N+](=O)[O-])cc1)N1CCCCC1,-4.4,·,-8%,-1,-6
COC(=O)c1ccc(C2Nc3cccc4cccc(c34)N2)cc1,0.7,·,21%,0,8
C=CC(=O)Nc1ccc(Br)cc1,11,-15,-8%,-2,-3
COc1c2n(C)ccc3c-2n(c(=O)c1=O)c1ccccc31,7.7,·,·,·,1
Cc1nn(C)c(C)c1S(=O)(=O)N1CCC(C(=O)NCC2COc3ccccc3O2)CC1 (centres undefined),0.9,-38,-8%,9,5
CC(=O)c1c(C)[nH]c(C(=O)Nc2cccnc2)c1C,-1.1,-12,-5%,3,-2
COCCn1c(SCC(=O)NCc2ccc3c(c2)OCO3)nnc1-c1c[nH]c2ccccc12,-1.0,·,6%,-2,0
COC(=O)c1ccc(C23CC4(C2)[C@H](CN(Cc2ccc(-c5ccccc5)cc2)[C@@H]4c2ccccc2)C3c2ccc(C(F)(F)F)cc2)cc1 (some centres undefined),3.9,·,3%,·,-3
Cc1ccc2ncnc(NCCCCCC(=O)O)c2c1,-1.6,·,·,6,3
Cc1cccc(NC(=S)N(C)C)c1C,0.5,·,-16%,·,-4
Cc1c(OC(C)C(=O)NC2CC(C)(C)NC(C)(C)C2)ccc2c3c(c(=O)oc12)CCC3 (centres undefined),1.9,·,·,·,-2
COCCn1nnnc1C(c1ccc(OC)cc1)N1CCN(c2ccccc2F)CC1 (centres undefined),4.9,-1,-1%,6,1
CN(C)CCN(CC1CCCN(Cc2ccccc2F)C1)C(=O)Cc1c(F)cccc1F (centres undefined),0.3,·,·,·,3
CN(C)C(=O)CC12CC3CC(C1)CC(CC(=O)N(C)C)(C3)C2,-0.9,·,6%,6,-3
CCCCn1c(N)c(N(CC(C)C)C(=O)c2ccc(S(=O)(=O)N(CC)c3ccccc3)cc2)c(=O)[nH]c1=O,2.0,·,·,·,1
CCCC(=O)Nc1c2c(nn1-c1cccc(C)c1C)CS(=O)(=O)C2,-1.7,·,·,·,8
O=[N+]([O-])c1ccc(S(=O)(=O)N/N=C/c2ccco2)cc1,-1.8,·,1%,1,-2
COc1ccc(C(=O)N2CCN(c3ccc(NC(=O)c4ccco4)cc3)CC2)cc1,4.5,·,·,·,-9
Cc1ccccc1C(=O)N1CCN(c2ccc(NC(=O)c3ccco3)cc2)CC1,-1.8,·,·,·,-6
CCc1c(C)c2ccc(OCC(=O)N(C)C)c(C)c2oc1=O,·,4,0%,-1,-11
CC(=O)c1ccc(N(CC(=O)NC2CCCC2)C(=O)c2ccc(C)s2)cc1,6.0,·,·,·,-10
COc1ccc(N2C(=O)CCC(C(=O)O)C2c2ccccc2OC)cc1 (centres undefined),-5.3,·,0%,·,-3
COc1cc(OC)c(S(=O)(=O)N2CCN(C(=O)c3ccccc3F)CC2)cc1NC(C)=O,-1.0,·,-4%,1,-1
CC1CN=C(NC2CCCCC2C)S1 (centres undefined),3.4,-47,-3%,8,-4

# Gathered by group, the entries above containing a cyano group (2)
SMILES,RecA intein inh,YopH PTP inh,Mtb growth,Arbovirus inh,Mtb bLac sens
CN(C)C(/C=C/Nc1ccc(F)cc1)=C(C#N)C#N,-3.0,-27,-4%,4,-1
CC(C)OC(=O)Cn1cc(C#N)c2ccccc21,-2.1,·,3%,0,9

# Other compounds:
SMILES,RecA intein inh,YopH PTP inh,Mtb growth,Arbovirus inh,Mtb bLac sens
O=C(N=C1c2ccccc2CN1c1ccc(F)c(F)c1)c1cccnc1,-0.8,·,0%,-1,6
CCc1ccccc1NC(=O)c1ccc(NCCc2ccccc2)c([N+](=O)[O-])c1,4.6,-24,0%,-1,7
COc1ccc(NC(=O)CN(C)C(=O)CNC(=O)Cc2cccc3ccccc23)cc1,3.0,·,·,·,0
COc1ccc2c(c1)[N+](C)(C)C(C)(C)C=C2C,-1.2,·,-3%,-3,1

# Assay outcomes from PubChem.

# Some of the compounds tested. The share of hits here may be higher or lower than overall.
